Methyltransferases = Primary Screen for Target Class Profiling of Small Molecule Inhibitors of Methyltransferases | purified enzyme, MTase-Glo SAH luminescence; hits give low values | calls only at 40 µM | 3.9% of 25,000 active | AID 1745853, 2022; active = -50% or lower on at least one of six enzymes; inconclusive = the cases between; inactive = as a rule above -30% on all six;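 note: enzymes were COMT GAMT GNMT HNMT NNMT and PNMT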
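Each enzyme was reacted with SAM and its substrate, with compounds tested once at 40 uM; SAH formed was read by MTase-Glo luminescence.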
Calls only; i = inactive; ? = inconclusive; + = active, no number; ! = not confirmed by another sample. % is set by controls: 0 for no effect and ±100 for the full control effect. Only part of the results is shown. The share of hits here may be higher or lower than overall.

mol | Methyltransferases
O=C(CCCN1CCN(c2ccc(F)cc2)CC1)NC1c2ccccc2CSc2ccccc21 (configuration not stated) | i
CCN1CCN(CCNC(=O)c2cc3n(n2)CC(C)(C(=O)NCCC(C)C)N(C)C3=O)CC1 (configuration not stated) | i
CC1CCN(CCCNC(=O)C2CCc3sc(C(=O)N4CCCC4)cc3C2)CC1 (configuration not stated) | +
COc1ccc(CN2C(=O)c3cc4oc(C)cc4n3CC2(C)C(=O)NC2CCCCC2)cc1 (configuration not stated) | i
C[C@@H]1O[C@@H](O[C@H]2[C@H](O[C@H]3CC[C@@]4(C)C(CC[C@]5(C)C4CC=C4[C@@H]6CC(C)(C)CC[C@]6(C(=O)O)CC[C@]45C)[C@]3(C)CO)OC[C@H](O)[C@@H]2O)[C@H](O)[C@H](O[C@@H]2OC[C@@H](O)[C@H](O)[C@H]2O)[C@H]1O (some centres not stated) | i
CC(C)CCn1c(=O)c2ccc(C(=O)NC3CCCCC3)cc2n2c(=O)n(Cc3ccccc3F)nc12 | i
Cc1c(-c2ccnc(Nc3cc(Br)cc(C(F)(F)F)c3)n2)sc(=O)n1C | ?
CC(C)C[C@H](CC(=O)NO)C(=O)N[C@H](C(=O)N[C@@H](C)C(=O)NCCN)C(C)(C)C | i
Cc1ccc(NC(=O)Cn2nc3n(Cc4ccccc4)c(=O)c4ccccc4n3c2=O)cc1C | i
CCCN1C(=O)c2c(C(=O)NCc3ccc(OC)cc3OC)ncn2CC1(C)C(=O)NCc1ccc(C)cc1 (configuration not stated) | i
CCOC(=O)c1cnc2ccc(Br)cc2c1Nc1cccc(C(C)=O)c1 | i
Cc1nc(CN(C)c2ncnc3ccc(-c4ccc5c(c4)OCO5)cc23)cs1 | +
Cc1ccc(CN2C(=O)c3cc4oc(C)cc4n3CC2(C)C(=O)NC2CCCCCCC2)cc1 (configuration not stated) | i
CCCn1c(=O)c2cc(Cl)ccc2n2c(SCc3cccc(OC)c3)nnc12 | i
CCOC(=O)c1cc2ccc(O)cc2oc1=O | ?
COc1ccccc1CNC(=O)C1(C)Cn2nc(-c3ccccc3)cc2C(=O)N1Cc1ccc(OC)c(OC)c1 (configuration not stated) | i
CCc1noc(-c2cn(C3CCN(C(=O)c4cc(Cl)ccc4F)CC3)nn2)n1 | i
C[C@]1(CO)[C@H]2Cc3sc(NC(=O)c4ccc(F)cc4)nc3[C@@H](CC(=O)NCc3ccccc3)[C@]2(C)CC[C@H]1O | i
CN(Cc1ccco1)C(=O)c1cc2n(n1)CC(C)(C(=O)NC1CCCCC1)N(C)C2=O (configuration not stated) | i
COc1cccc(CN2C(=O)c3cc4occc4n3CC2(C)C(=O)NC2CCCCC2C)c1 (configuration not stated) | i
Cc1cc(C[C@@H]2COC[C@@H]2NC(=O)c2cccc(-n3nc(C)cc3C)c2)on1 | i
COc1c(O[C@@H]2O[C@H](CO)[C@@H](O)[C@H](O)[C@H]2O)c(CCC(=O)O)cc2ccoc12 | i
CCc1cccc2c(C(CC(=O)N3CCCC3)c3cccc([N+](=O)[O-])c3)c[nH]c12 (configuration not stated) | i
Cc1nnc([C@@H]2CC(F)(F)CN2C(=O)c2ccoc2)o1 | i
COC(=O)c1ccc2nc(C[C@@H]3C[C@@H](C(C)C)[C@H](CNC(=O)c4cccnc4)C=C3C)[nH]c2c1 | i
CC1CCN(S(=O)(=O)c2ccc3c(c2)oc(=O)n3CC(=O)N2CCC(N3CCCCC3)CC2)CC1 | i
Cc1nc2c3ccccc3n3c(CCCC(=O)NCCCOC(C)C)nnc3n2n1 | i
COc1ncccc1-c1n[nH]c2c1CC(=O)N(Cc1ccccc1)C2 | i
COc1ccc(-c2cc(C(=O)N3CCCC3)ccn2)cc1F | i
COCCCN1C(=O)CSc2c(c3ccccc3n2C)C1C(=O)NCc1ccccc1OC (configuration not stated) | i
Cc1ccc(CNC(=O)C2(C)Cc3ccccc3C(=O)N2Cc2ccc(C(F)(F)F)cc2)cc1 (configuration not stated) | i
CC(C)(N)c1cc(C(=O)N[C@@H]2CCc3ccc(Oc4ccnc5c4CCC(=O)N5)cc3C2)cc(C(F)(F)F)c1 | ?
Cc1nc(CN2C(=O)OC3(CCN(C(=O)Cc4ccc(O)cc4)CC3)C2(C)c2ccccc2)cs1 (configuration not stated) | i
COc1ccccc1C(=O)N1CC(Oc2ccc(-c3noc(-c4ccncc4)n3)cc2)C1 | i
CC1(C(=O)NC2CCCCCC2)Cn2c(nc3ccccc32)C(=O)N1CCc1ccccc1 (configuration not stated) | i
Cc1ccc2c(c1)c(-n1cccc1)c1n2CC(C)(C(=O)NC2CCCCC2)N(Cc2cccnc2)C1=O (configuration not stated) | i
COc1ccc2cc3n(c2c1)CC(C)(C(=O)NC1CCCCCC1)N(Cc1cccnc1)C3=O (configuration not stated) | i
COc1ccc(CN2CCCC(CNC(=O)NC(C)C)C2)cc1O (configuration not stated) | i
Cc1ccc(NC(=O)Cn2c(=O)oc3cc(S(=O)(=O)N4CC(C)CC(C)C4)ccc32)c(C)c1 (configuration not stated) | i
COc1ccc(NC(=O)[C@@H]2C[C@H](c3ccc(F)cc3)N(Cc3ccccc3Cl)C2)cn1 | i

Structures from the list above containing a Cl atom (three):
mol | Methyltransferases
CCCn1c(=O)c2cc(Cl)ccc2n2c(SCc3cccc(OC)c3)nnc12 | i
CCc1noc(-c2cn(C3CCN(C(=O)c4cc(Cl)ccc4F)CC3)nn2)n1 | i
COc1ccc(NC(=O)[C@@H]2C[C@H](c3ccc(F)cc3)N(Cc3ccccc3Cl)C2)cn1 | i

Pulled by compound from the list above:
mol | Methyltransferases
Cc1ccc(NC(=O)Cn2c(=O)oc3cc(S(=O)(=O)N4CC(C)CC(C)C4)ccc32)c(C)c1 (configuration not stated) | i
Cc1nc(CN2C(=O)OC3(CCN(C(=O)Cc4ccc(O)cc4)CC3)C2(C)c2ccccc2)cs1 (configuration not stated) | i
Cc1ccc(CNC(=O)C2(C)Cc3ccccc3C(=O)N2Cc2ccc(C(F)(F)F)cc2)cc1 (configuration not stated) | i
COc1ccc(CN2CCCC(CNC(=O)NC(C)C)C2)cc1O (configuration not stated) | i

Next section.
Structure | Methyltransferases
Cc1ccc(C)c(N2C(=O)c3cc4oc(C)cc4n3CC2(C)C(=O)NC2CCCCCC2)c1 (configuration not stated) | i
Cc1ccccc1N(C)C1CN([S+](=O)([O-])c2ccccc2)C1 | i
Cc1cc(CN(C)C(=O)c2cc(COc3ccc4c(c3)OCO4)[nH]n2)on1 | i
CC1(C(=O)NCc2ccc(F)cc2)Cn2cnc(C(=O)NCc3ccccc3F)c2C(=O)N1C1CC1 (configuration not stated) | i
CC1(C(=O)NC2CCCCCC2)Cn2c(nc3ccccc32)C(=O)N1Cc1cccc(Cl)c1 (configuration not stated) | i
CN1C(=O)c2cc(C(=O)NCc3ccc4c(c3)OCO4)nn2CC1(C)C(=O)NC1CCCCC1 (configuration not stated) | i
CCCN1C(=O)c2c(C(=O)NCc3ccc(CC)cc3)ncn2CC1(C)C(=O)NCc1ccc(C)cc1 (configuration not stated) | i
CCN1C(=O)c2cc(C(=O)NCCc3cccs3)nn2CC1(C)C(=O)NC1CCCC1 (configuration not stated) | i
COc1ccc(CNC(=O)Cn2nc3n(Cc4ccc(F)cc4)c(=O)c4ccccc4n3c2=O)cc1 | i
COC(=O)c1ncn2c1C(=O)N(Cc1ccc(OC)c(OC)c1)C(C)(C(=O)NC1CCCC1)C2 (configuration not stated) | i
CCn1c(=O)n(CC)c2cc(S(=O)(=O)N3CCN(c4ccccc4OC)CC3)ccc21 | i
CCC(C(=O)N1CCOCC1)n1ccc2cc(S(=O)(=O)N3CCCCC3)ccc21 (configuration not stated) | i
CC(C)C1=NOC2(CCN(C3COC3)CC2)C1 | i
COc1ccc(CNC(=O)CCCc2nnc3n4nc(C)nc4c4ccccc4n23)cc1 | i
Cc1ccc(CN2C(=O)c3cc4sccc4n3CC2(C)C(=O)NC2CCCCC2C)cc1 (configuration not stated) | i
O=C(NCc1ccccc1)c1ccc2c(=O)nc3c(-c4ccc(Cl)cc4)n[nH]n3c2c1 | i
CS(=O)(=O)N1CCC(NC(=O)c2[nH]ncc2NC(=O)c2c(Cl)cccc2Cl)CC1 | i
C=CCn1c(=O)c2ccc(C(=O)NC(C)CC)cc2n2c(=O)n(CC(N)=O)nc12 (configuration not stated) | i
Cc1cccc(NC(=O)Cn2nc3n(CCC(C)C)c(=O)c4ccc(C(=O)NCC(C)C)cc4n3c2=O)c1 | i
N[S+](=O)([O-])c1ccc2c(c1)OCCN(Cc1ccccc1Cl)C2 | i
COCCOCc1nc(C2CCCN2S(=O)(=O)Cc2ccccc2)no1 (configuration not stated) | i
CC(C)Oc1ccc2c(NC(=O)[C@H]3CCCO3)nn(CC(F)(F)F)c2c1 | i
COC1OC(OC)C(O)(CCC2(C)C(C)CCC3(C)C2CC(O)C(O)C32CO2)C1O (configuration not stated) | i
CCN1c2cc(C(=O)NCCc3ccccc3)ccc2C(=O)N2CCCCC21 (configuration not stated) | i
COc1cccc(Cn2nc3n(CCC(C)C)c(=O)c4ccc(C(=O)NC5CCCCC5)cc4n3c2=O)c1 | i
COc1ccc(Nc2ccnc(N3CCCC(C(=O)NCc4ccc(F)cc4)C3)n2)cc1 (configuration not stated) | i
O=C1NCCCCCCN(C(=O)CCc2ccccc2)[C@H]2CCCC[C@@H]12 | i
CC(C)CCN1C(=O)c2ccc(-c3ccco3)n2CC1(C)C(=O)NC1CCCC(C)C1C (configuration not stated) | i
CCN1C(=O)c2cc(C(=O)NCc3ccccc3F)nn2CC1(C)C(=O)NC1CCCC1 (configuration not stated) | i
CCCCOc1ccc(CNC(=O)c2cc3n(n2)CC(C)(C(=O)NC2CCCC2)N(CC)C3=O)cc1 (configuration not stated) | i
COC(=O)c1ncn2c1C(=O)N(c1ccc(OC)c(OC)c1)C(C)(C(=O)NCc1ccccc1OC)C2 (configuration not stated) | i
COc1cc(NC(=O)CSc2nnc3n(CC(C)C)c(=O)c4ccccc4n23)cc(OC)c1 | i
Cc1ccc(Cn2c(=O)c3ccccc3n3c(CCC(=O)NCc4ccc(F)cc4)nnc23)cc1 | i
O=C(O)c1cccc(CN2C(=O)/C(=C(\c3ccccc3)c3ccc(Cl)cc3)c3ccccc32)c1 | +
O=C(NCC1CN(C(=O)Cc2cccc(Cl)c2)CC12CN(c1ccccc1)C2)C1CC1 (configuration not stated) | i
CCCN(CC1CC1)C(=O)[C@@H]1COCC(=O)N1Cc1ccccc1 | i
O=[S+]([O-])(CCC(F)(F)F)N1CCN(Cc2ccccc2-c2cccnc2)CC1 | i
O=S(=O)(c1ccccc1)c1nnn2c1nc(Nc1cccc(F)c1)c1ccccc12 | i
CN(CCc1cnn(C)c1)C(=O)c1coc(COc2cccc(C(F)(F)F)c2)n1 | i
CCn1c(CN(C)C)nnc1C1CCN(Cc2ccc(-n3ccnc3)cc2)CC1 | i

The final two entries of the section above are carried over, then new ones follow:
Structure | Methyltransferases
CN(CCc1cnn(C)c1)C(=O)c1coc(COc2cccc(C(F)(F)F)c2)n1 | i
CCn1c(CN(C)C)nnc1C1CCN(Cc2ccc(-n3ccnc3)cc2)CC1 | i
Cc1ncsc1C(=O)N1CC(CNC(=O)C2CC2)C2(C1)CN(c1ccccc1)C2 (configuration not stated) | i
CCC(CCO[C@@H]1O[C@H](CO[C@H]2OC[C@](O)(CO)[C@H]2O)[C@@H](O)[C@H](O)[C@H]1O)C(C)(C)O (some centres not stated) | i
Cc1ccc(N2C(=O)c3cc4sccc4n3CC2(C)C(=O)NC2CCCCC2)cc1C (configuration not stated) | i
CCN1CCN(CCNC(=O)c2cc3n(n2)CC(C)(C(=O)NC2CCCCCC2)N(C)C3=O)CC1 (configuration not stated) | i
CC(C)(C)c1cc2n(n1)CC(C)(C(=O)NC1CCCCC1)N(Cc1ccccc1Cl)C2=O (configuration not stated) | i
COCCN1C(=O)c2cc(-c3ccc(OC)cc3)nn2CC1(C)C(=O)NCc1ccccc1OC (configuration not stated) | i
COC1CCN(C(=O)c2cc(Cc3n[nH]c(=O)c4ccccc34)ccc2F)CC1 | ?
CC(C)CNC(=O)c1ccc2c(=O)n(Cc3ccccc3)c3nn(Cc4ccccc4)c(=O)n3c2c1 | i
CCOC(=O)c1cc(C#N)c(N2CCC(C(=O)NS(=O)(=O)Cc3ccccc3)CC2)nc1C | i
Cc1ccccc1N1CCCN(Cc2ccccc2OCCO)CC1 | ?
COc1cc(C#N)ccc1S(=O)(=O)Nc1ccc2c(c1)cc(C)c(=O)n2C | ?
CO[C@H]1[C@H](NC(=O)c2ccc(C)c(O)c2)c2ccccc2C12CCNCC2 | i
O=C(CCCc1nnc2n3nc(-c4ccccc4)nc3c3ccccc3n12)NCCc1ccc(Cl)cc1 | i
CCC(C)NC(=O)c1ccc2c(=O)n(CC(C)C)c3nn(CC(=O)Nc4ccc(C)cc4)c(=O)n3c2c1 (configuration not stated) | i
CCCn1c(=O)c2ccc(C(=O)NCC(C)C)cc2n2c(=O)n(CC(=O)NCc3ccccc3)nc12 | i
CCNC(=O)C#Cc1ccc2c(C(=Nc3ccc(CN(C)C)cc3)c3ccccc3)c(O)[nH]c2c1 | +!
CC1(C)CCCC2(C)C1C(=O)C=C(C(=O)O)C2(O)C(=O)O (configuration not stated) | i
NS(=O)(=O)c1ccc(CCNc2nc3c(-c4ccc(Cl)cc4)nnn3c3ccccc23)cc1 | i
CC(C)OCCCNC(=O)C1(C)Cn2c(cc3ccccc32)C(=O)N1Cc1ccc(F)cc1 (configuration not stated) | i
CCCn1c(=O)c2ccc(C(=O)NC3CCCC3)cc2n2c(=O)n(CC(=O)NC3CCCCC3)nc12 | i
CCC(O)C1CCN(C(=O)c2cnn3cc(CN(CC)CC)cnc23)CC1 (configuration not stated) | i
CCOC(=O)c1ccc2c(c1)[C@@H]1C=CC[C@@H]1[C@H](c1ccc(C)cc1)N2 | i

From PubChem BioAssay
